HPGD block – blocks human HPGD enzyme activity; P15428; purified HPGD, NADH fluorescence kinetic, PGE2 substrate; Potency, µM, for inactives: at the highest dose activity change, negative = inhibition, usual class: inhibitors; 4.3% of 150,000 active; AID 894; active = well fitted inhibition curve with a large enough effect (not every such curve was filed as active); inconclusive = small, poorly fitted or top-dose-only effect, or another doubt; inactive = no such curve, though single readings can be large or run the other way;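 further: top concentration of the series not given in the record; plate controls included wells without enzyme; inactives centre near -10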
Target sequence (P15428 whole entry, looked up): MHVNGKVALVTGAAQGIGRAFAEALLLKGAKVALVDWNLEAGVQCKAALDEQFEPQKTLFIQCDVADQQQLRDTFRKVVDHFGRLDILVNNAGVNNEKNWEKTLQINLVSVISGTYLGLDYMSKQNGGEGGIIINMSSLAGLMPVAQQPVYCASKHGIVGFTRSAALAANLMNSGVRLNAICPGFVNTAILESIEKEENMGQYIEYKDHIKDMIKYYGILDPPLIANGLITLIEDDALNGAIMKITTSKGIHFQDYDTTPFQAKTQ
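NADH formation kinetics: reaction with 30 uM PGE2 and 1 mM NAD+ (final), 20 nM enzyme, Tris-HCl pH 8 with Tween 20, after 15 min compound preincubation at room temperature. Fluorescence change, last versus first of five reads.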
Active calls of the source: *; ? = inconclusive; & = joins results of further samples. On the % scale 0 is the no-effect control and ±100 the full control effect; potency means the concentration at half of the fitted maximal effect.

SMILES	HPGD block
CCOC(=O)CN1C(=O)N[C@@H](c2ccco2)C(C(C)=O)=C1C	-0.1%
O=S(=O)(Nc1ccc(Cl)c(C(F)(F)F)c1)c1cnc[nH]1	-8.4%
Cc1cc(Cl)c(OCCCn2cncn2)c(Br)c1	-11.1%
O=C1c2ccccc2-c2c1cccc2C(=O)N1CCN(C(=O)c2ccco2)CC1	-9.5%
O=S1(=O)CC(O)C(Nc2ccc(Cl)cc2)C1 (stereo not given)	-9.3%
O=C(Nc1cccc2ncccc12)c1cccnc1	-9.9%
CN1CCN(S(=O)(=O)c2ccc(NC(=S)NC(=O)c3ccccc3)cc2)CC1	?
Cc1csc2ncc(C(=O)NCc3ccccn3)c(=O)n12	?
CCOC(=O)c1sc(Nc2nc3cc4c(cc3s2)OCO4)cc1C	?
COc1ccccc1CN1CC2(CCN(C(=O)c3cc(C(F)(F)F)cc(C(F)(F)F)c3)CC2)C1	-6.2%
O=C(CCc1nc2ccccc2[nH]1)NC1CCCCC1	-12.0%
CC(C)c1ccc(/C=N/Nc2ccc(C(=O)O)cc2)cc1	14.1µM*
CCCn1nc(NC(=O)c2cccs2)c2cc3cc(OC)ccc3nc21	?
CC(=O)NC(C1C(=O)CC(C)(C)CC1=O)(C(F)(F)F)C(F)(F)F	-9.8%
Cc1ccc2nsnc2c1NC(=O)CCc1ccccc1	-0.3%
Cc1[nH]nc(N2CCCCC2)c1[N+](=O)[O-]	-2.7%
O=C(c1ccccc1F)N(NC(=O)C(O)(c1ccccc1)c1ccccc1)c1ccccc1	-11.5%
O=C(c1ccc(Cl)cc1)c1ccc(OCC(O)CN2CCOCC2)cc1 (stereo not given)	-9.1%
COC(=O)c1cccnc1-n1c(=O)c2cccnc2n(Cc2ccc(Cl)cc2)c1=O	-6.5%
COc1ccc(CNc2nc(-c3ccc(C(=O)N(C)C)cc3)nc3ccccc23)c(OC)c1	?
COc1ccc(C2CC(c3ccc(Cl)cc3Cl)Nc3nc(N)nn32)cc1 (stereo not given)	-17.8%
CC1CC(C)(C)NC(=S)N1CC(=O)NCc1ccc(Cl)cc1 (stereo not given)	-0.6%
O=C(Cc1cccs1)Nc1ccc(S(=O)(=O)N2CCCCC2)cc1	-18.2%
CCn1c(CSc2nc3ccccc3s2)nnc1SCC(N)=O	-5.3%
Cc1ccc(Cn2c(SCC(C)C)nc3c2c(=O)[nH]c(=O)n3C)cc1	20µM*

Among those listed so far, these have a CF3 group:
SMILES	HPGD block
O=S(=O)(Nc1ccc(Cl)c(C(F)(F)F)c1)c1cnc[nH]1	-8.4%
COc1ccccc1CN1CC2(CCN(C(=O)c3cc(C(F)(F)F)cc(C(F)(F)F)c3)CC2)C1	-6.2%
CC(=O)NC(C1C(=O)CC(C)(C)CC1=O)(C(F)(F)F)C(F)(F)F	-9.8%

(listing goes on)
SMILES	HPGD block
CC(C)(C)NS(=O)(=O)c1ccc(NC(=O)c2cc(-c3ccccc3)nc3ccccc23)cc1	-19.0%
CC(=O)c1ccc(NC(=O)/C=C/c2ccc(C)cc2)cc1	-9.6%
c1ccc(CN2CCN(CCCNc3ccc4nnc(-c5ccccc5)n4n3)CC2)cc1	-17.4%
N#Cc1cccc(NC(=O)N2CCC(c3nc4c(nnn4Cc4cccc(Cl)c4)c(=O)[nH]3)CC2)c1	10µM*
O=C1C(=C(O)c2ccccc2)C(=O)c2ccccc21	-25.5%
Clc1ccc(-c2noc(CN3CCCC3)n2)cc1	-7.7%
C=CCNC(=O)N1CCc2nc(-c3ccc(OC)cc3C)c3c(c2C1)CO[C@@H](c1ccccc1)C3	-3.2%
C=CCSc1nnc(-c2sc(-c3ccccc3)nc2C)n1C	?
Cc1ccccc1-c1nnc(SCC(=O)NCc2ccc3c(c2)OCO3)n1C	1.4%
CN(C)C(=O)CSCc1c(Cl)cccc1Cl	-2.8%
C=CCNc1nc(-c2ccccc2)nc(-n2ccnc2)n1	-5.7%
CCOC(=O)c1ccc(NC(=S)NC2CCCC2)cc1	-0.5%
COc1ccccc1NC(=O)COc1ccccc1	-28.3%
CCCOC(=O)C1C2C=CC(C2)C1C(=O)OCC(=O)c1ccccc1 (stereo not given)	-11.4%
CCOC(=O)N1CCN(S(=O)(=O)c2ccc(OC)c(Cl)c2Cl)CC1	-17.8%
CCN(CC(=O)Nc1ccccc1Br)Cc1nc2ccccc2c(=O)[nH]1	-4.0%
CCOc1ccc2c(c1)C(c1ccc(C)cc1)=NNC(c1ccc(OC)cc1)=N2	-9.6%
COc1ccc(C(=O)NC2CCCCC2)cc1S(=O)(=O)N1CCCC1	-2.4%
O=C(Nc1cccc2ccccc12)N1CCN(c2ccccc2)CC1	-11.7%
O=C(Cn1cc(C(F)(F)F)ccc1=O)N1CCN(S(=O)(=O)c2ccccc2)CC1	-11.8%
O=C(Nc1ccc(Br)cc1)C1CC=CCC1C(=O)OCC1CCCO1 (stereo not given)	-28.1%
CN(CC(=O)NCc1ccncc1)S(=O)(=O)c1ccc(F)cc1	-5.8%
O=c1oc(-c2cccs2)nc2sc3c(c12)CCCCC3	?
COCCNC(=O)C(c1ccncc1)N(C(=O)Cn1nnc2ccccc21)c1ccc(OC)cc1 (stereo not given)	0.3%
O=C1C=C(c2ccccc2)CC(/C=C/c2ccccc2)C1 (stereo not given)	-6.7%

5 records drawn at random from those above:
SMILES	HPGD block
Clc1ccc(-c2noc(CN3CCCC3)n2)cc1	-7.7%
COc1ccccc1NC(=O)COc1ccccc1	-28.3%
O=C1C(=C(O)c2ccccc2)C(=O)c2ccccc21	-25.5%
CN(C)C(=O)CSCc1c(Cl)cccc1Cl	-2.8%
CCN(CC(=O)Nc1ccccc1Br)Cc1nc2ccccc2c(=O)[nH]1	-4.0%

(more compounds)
SMILES	HPGD block
COc1ccc(-c2nc(C(N)=O)c3[nH]c(=O)n(-c4cccc(C)c4)c3n2)c(OC)c1	-27.6%
CC(=O)NC(CCS(C)(=O)=O)C(=O)Nc1cccc(Cl)c1Cl (stereo not given)	-5.3%
Fc1ccccc1N1CCN(C2CCN(Cc3c[nH]c4ccccc34)CC2)CC1	-7.4%
Cc1sc2ncnc(OCC(=O)N3CCN(S(=O)(=O)c4ccccc4)CC3)c2c1C	-2.9%
O=c1c2cc(Cl)ccc2[nH]c(=S)n1Cc1ccccn1	-24.1%
O=C(CC1CS(=O)(=O)CC1CC(=O)Oc1ccccc1F)Oc1ccccc1F (stereo not given)	-12.9%
CC(O)c1nc2ccccc2n1C/C=C/c1ccccc1 (stereo not given)	-6.5%
CC(c1nnc(Sc2nnnn2-c2ccccc2)n1-c1ccc(F)cc1)N(C)C (stereo not given)	-1.0%
Cc1ccc(C(=O)CSc2nc(C)cc(=O)[nH]2)cc1	-6.4%
COC(=O)c1cccc(C23CC4(C2)[C@H](CN(Cc2cccnc2)[C@@H]4c2ccccc2)C3c2ccc(Cl)nc2)c1 (stereo not given in full)	-12.8%
O=C(O)c1cccc(Nc2ncnc3ccccc23)c1	-7.9%
CCn1ncc(/C=C/C(=O)NCc2cn(C)nc2C)c1C	-5.7%
CC(=O)C1=C(O)C(=O)N(CCc2c[nH]c3ccccc23)C1c1cccc(O)c1 (stereo not given)	-22.9%
C/C(=N\N=C\c1cccc(F)c1)c1nnn(-c2nonc2N)c1C	-3.4%
CC1CCCN(S(=O)(=O)c2cccc(-c3cn4cccnc4n3)c2)C1 (stereo not given)	?
OCCN1CN=C(Nc2nc3ccccc3s2)NC1	-10.4%
Cc1ccc(/C=C/C(=O)N2CCN(S(=O)(=O)c3ccc(C)c(C)c3)CC2)o1	22.4µM*
CC(C)CNC(=S)Nc1ccccc1F	-21.9%
Cc1ccc(-c2noc(C3CCCN(C(=O)c4c(F)cccc4F)C3)n2)cc1 (stereo not given)	-16.0%
CON(C)c1nc(OCCNC(=O)COc2ccc(Cl)cc2C)nc(N(C)C)n1	7.7%
COc1nccnc1NS(=O)(=O)c1ccc(N=Cc2c(C)[nH]n(-c3ccc(C)c(C)c3)c2=O)cc1	22.4µM*
O=C(Cn1cc2c(n1)CCCC2)N1CCOCC1	-8.3%
O=C1c2ccccc2C(=O)N1CCCCSc1nnc2ccccn12	-13.1%
CCCOC(=O)COC(=O)c1ccccc1NC(=O)c1ccccc1	-21.5%
O=S(=O)(Nc1ncnc2c1oc1ccccc12)c1ccc(Cl)s1	-6.6%
SMILES	HPGD block
Cn1c(C(=O)OC(C(=O)NC2CCCCC2)c2cccnc2)cc2sccc21 (stereo not given)	-27.0%
Cc1cc(N2C(=O)C(=O)/C(=C(/O)c3ccc(F)cc3)C2c2cccc(Br)c2)no1 (stereo not given)	-10.5%
CC(C)C(=O)Nc1cccc(NC(=S)NC(=O)c2ccccc2Cl)c1	0.3%
COc1ccc(CC(=O)N2CCOCC2)cc1	-13.6%
O=C(c1ccco1)c1cc2c(ccc3ccccc32)oc1=O	-9.6%
COC(=O)c1ccc2nc(C(F)(F)F)[nH]c2c1	-16.6%
COS(C)(=O)=O	-10.9%&-3.8%
COc1cc(NC(=O)COC(=O)CNC(=O)c2cc(C)cc(C)c2)c(C)cc1[N+](=O)[O-]	-6.9%
Cc1ccccc1NC(=O)C1Cc2ccccc2CN1C(=O)OCc1ccccc1 (stereo not given)	-1.7%
COc1ccc(NC(=O)CSc2nnc(-c3cccs3)n2C)cc1OC	-12.6%
Cc1cc(NC(=O)C2CCCCC2)nc2c1c(=O)oc1ccccc12	-19.3%
Cc1cc(C)n2nc(SCCC(=O)NCCc3ccccc3)nc2n1	-13.6%
O=c1[nH]n2c(=O)c3c([nH]c2c1N=Nc1ccccc1)CCC3	-19.9%
O=C(NCCc1ccc(F)cc1)c1cccs1	-16.8%
Nc1nc(-c2ccco2)c(-c2ccco2)s1	-6.5%
O=C(CN(C(=O)Cn1nnc(-c2cccs2)n1)c1ccc2c(c1)OCCO2)NCC1CCCO1 (stereo not given)	-11.3%
O=C(CN1CCN(CC(=O)Nc2ccccn2)CC1)Nc1ccccn1	-8.8%
c1ccc(-c2nc(-c3cccs3)[nH]c2-c2ccccc2)cc1	?
Cc1ccc(C)c(N(CC(=O)NCc2ccc3c(c2)OCO3)C(=O)CCC(=O)Nc2ccccn2)c1	-1.8%
C=CCNC(=S)Nc1cccc2ccccc12	-16.1%
CCN(CC)S(=O)(=O)c1cccc(S(=O)(=O)N2CCCCC2)c1	-0.7%
COc1ccc(-c2nn(-c3ccccc3)cc2C(=O)OCC(=O)c2ccc(C)c([N+](=O)[O-])c2)cc1	-2.7%
CCCC1(C(=O)OC)C=C2C(=C(C)C(=O)C2C)CN1 (stereo not given)	?
COC(=O)C1=C(C)OC(N)=C(C#N)C1c1cc(OC)c(OCC(N)=O)cc1Cl (stereo not given)	-10.1%
CCCCC(=O)Nc1ccc(C(=O)NNC(=O)c2cccs2)cc1	-3.2%

Single values from the entries so far.
For HPGD block, `Cc1cc(NC(=O)C2CCCCC2)nc2c1c(=O)oc1ccccc12` shows -19.3%
For HPGD block, `COc1ccc(CC(=O)N2CCOCC2)cc1` shows -13.6%
For HPGD block, `Cc1cc(C)n2nc(SCCC(=O)NCCc3ccccc3)nc2n1` shows -13.6%
For HPGD block, `O=C(CN(C(=O)Cn1nnc(-c2cccs2)n1)c1ccc2c(c1)OCCO2)NCC1CCCO1` (stereo not given) shows -11.3%

Further results.
SMILES	HPGD block
CN(C)c1nc(C(=O)NN)nc(N(C)C)n1	-6.4%
CCN(CC)S(=O)(=O)c1ccc(NS(=O)(=O)c2cccc(C)c2)cc1	-3.9%
CCN(CC)CCNC(=O)c1ccc(NC2=NC3CS(=O)(=O)CC3S2)cc1 (stereo not given)	1.5%
CC(C)(C)c1ccc(-c2nc(-c3ccncc3)no2)cc1	?
COc1ccc(C(=O)c2ccc(OC)c(OC)c2)cc1	-8.9%
Cc1cccn2c(=O)c3cc(C#N)c(=O)n(CCCN4CCOCC4)c3nc12	?
COc1cc(=O)n(C)c2ccccc12	-9.6%
COc1cc2c(cc1O)[C@H](Cc1ccc(Oc3cc(C[C@@H]4NCCc5cc(OC)c(O)cc54)ccc3O)cc1)NCC2	-15.3%
O=C(CSc1nnc(Cc2cccs2)n1-c1ccccc1)NCc1ccc2c(c1)OCO2	0.5%
O=C(Nc1ccc(S(=O)(=O)NCc2ccco2)cc1)c1ccc2ccccc2n1	-26.5%
COc1ccc(C2(C(=O)Nc3cc(C)on3)CCOCC2)cc1	-14.3%
CCOC(=O)c1cc2c(=O)n3ccccc3nc2n(CCOC)c1=NC(=O)c1ccncc1	?
N#Cc1ccc(OCc2nnc(SCC(=O)N3CCCc4ccccc43)n2-c2ccccc2)cc1	-0.9%
COc1cc(C(Nc2ccc(S(=O)(=O)N3CCC(C)CC3)cc2)C(=O)NCC2CCCO2)cc(OC)c1OC (stereo not given)	-11.5%
N#C/C(=C/c1ccc(-c2ccc(Br)cc2)o1)C(=O)NC1CCCCC1	-15.3%
COn1c(-c2ccccc2)nc2ccc(Cl)cc21	3.9%
O=C(CSc1nc2ccccc2o1)Nc1ccc(N2CCOCC2)c(Cl)c1	-16.8%
COC(=O)CC1(c2cccc3ccccc23)C(=O)c2ccccc2C1=O	3.7%
CCOC(=O)N1CCN(Cc2nc3c(c(=O)n(C)c(=O)n3C)n2Cc2ccccc2C)CC1	-8.9%
CN1C(=O)CC(N2CCN(C(c3ccccc3)c3ccccc3)CC2)C1=O (stereo not given)	-2.1%
O=C(CNC(=O)c1cccs1)NC1=NCCS1	-8.1%
Cc1cc(C)nc(NC(=NCCc2c[nH]c3ccccc23)NC(=O)Nc2ccc(Cl)c(Cl)c2)n1	-3.5%
N#Cc1c(C(F)(F)F)cc(-c2ccccc2)nc1SCC(=O)Nc1sc2c(c1C#N)CCC2	-18.5%
Nc1cc(=O)[nH]c(=O)n1Cc1ccco1	-2.0%
NS(=O)(=O)c1ccc(NCc2c(F)cccc2Cl)cc1	-2.4%
Cc1ccc(C#N)cc1	2.6%

Assay outcomes: PubChem, National Center for Advancing Translational Sciences (NCATS)

Only part of the results is shown; rates above refer to the full screens.
